# From PubChem BioAssay
# GIRK2 act – GIRK2 channel activation; HEK293-GIRK2 thallium flux, Thallos fluorescence; 63,000 tested, 0.05% active; AID 1259325; P48051; calls only for hits at 25 µM;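 active means among the strongest 0.2% of first-round signals and kept after retests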;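 further: first round at about 10 µM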
# Target sequence (P48051 whole entry, looked up): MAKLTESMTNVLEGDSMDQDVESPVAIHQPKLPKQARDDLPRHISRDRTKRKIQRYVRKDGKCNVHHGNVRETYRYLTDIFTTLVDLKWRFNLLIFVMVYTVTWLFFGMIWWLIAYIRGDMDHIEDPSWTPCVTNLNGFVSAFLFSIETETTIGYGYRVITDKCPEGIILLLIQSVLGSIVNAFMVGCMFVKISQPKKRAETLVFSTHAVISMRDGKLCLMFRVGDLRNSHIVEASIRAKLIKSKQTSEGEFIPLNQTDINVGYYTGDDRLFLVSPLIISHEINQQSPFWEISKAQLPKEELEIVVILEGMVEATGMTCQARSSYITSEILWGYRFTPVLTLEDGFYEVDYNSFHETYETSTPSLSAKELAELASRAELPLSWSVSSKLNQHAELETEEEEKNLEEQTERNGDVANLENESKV
# Calls only; i = inactive. Not all compounds are listed; the hit share may differ from the screen's.
SMILES,GIRK2 act
COC(=O)C[C@@H]1C(C(=O)O)=CO[C@@H](O[C@@H]2O[C@H](CO)[C@@H](O)[C@H](O)[C@H]2O)/C1=C\COC(=O)/C=C/c1ccccc1,i
CC(C)c1ccc(NC(=O)CSc2nnc(-c3cccnc3)o2)cc1,i
Cc1nn(C)cc1S(=O)(=O)N1CCN(c2ccccc2F)CC1,i
Cc1onc(-c2ccccc2Cl)c1C(=O)Nc1cccc(-c2cn3cccnc3n2)c1,i
CCOc1ccccc1-c1noc(Cn2cnc3c(cnn3-c3ccc(CC)cc3)c2=O)n1,i
O=C(CCn1cnc2ccccc2c1=O)N1CCC(Oc2ccc(Cl)cn2)CC1,i
CN(C)c1cccc(C(=O)N2CCc3cc(S(=O)(=O)NC4CCCC4)ccc32)c1,i
CSc1ccc(-c2noc(Cn3c(=O)n(Cc4ccco4)c(=O)c4ccccc43)n2)cc1,i
O=C(NCC(O)c1ccsc1)C(=O)NC1CCCC1 (centres undefined),i
COc1cc2nc(SCc3ccc(C#N)cc3)n3nc(-c4ccc([N+](=O)[O-])cc4)nc3c2cc1OC,i
CCN(C(=O)c1cnn2c1OCCC2)c1cccc(C)c1,i
Cn1c(=O)c2[nH]c(SCC(=O)NC3CCCCC3)nc2n(C)c1=O,i
O=C(c1ccccc1Br)N1CCC(CSC2=NCCS2)CC1,i
NC(=O)c1cnc(SCC(=O)N2CCN(c3ccccc3)CC2)nc1N,i
O=c1[nH]c2nc(N3CCSCC3)ncc2c(=O)n1C1CCCC1,i
O=C(Nc1ccc2c(c1)CN(C(=O)c1ccco1)CC2)c1ccc(OC(F)(F)F)cc1,i
COc1ccc(CCC(=O)Nc2ccc3c(c2)CCCN3S(=O)(=O)c2ccc(F)cc2)cc1,i
Cc1cc2ncn(CC3CCN(C(=O)c4cnccn4)CC3)c2cc1C,i
COc1cccc(CNC(=O)CSc2nccn3nc(-c4ccc(Cl)cc4)cc23)c1,i
O=S(=O)(NCC1(O)CCOc2ccccc21)c1ccc(N2CCCCS2(=O)=O)cc1 (centres undefined),i
Cc1cc(C(F)(F)F)nc(CCNC(=O)COc2ccc(Cl)cc2Cl)n1,i
CCCn1c(=O)c2c(nc3n(-c4ccc(OC)cc4)c(C)c(C)n23)n(C)c1=O,i
Cn1cccc(C(=O)Nc2ccc3c(c2)CN(C(=O)C2CC2)CC3)c1=O,i
CC(=O)Cn1c(=O)c2c(nc3n(CC(C)=O)c(-c4ccccc4)cn23)n(C)c1=O,i
Cc1cn2c3c(=O)n(CCCO)c(=O)n(C)c3nc2n1C1CCCCC1,i
# Going on with the list.
SMILES,GIRK2 act
CCOc1ccccc1C(=O)NCCC(O)c1ccc2c(c1)OCO2 (centres undefined),i
CCOC(=O)N1CCN(C(=O)CSc2nnc(C)c3cnn(-c4ccc(C)c(C)c4)c23)CC1,i
COc1ccc(-c2csc(CN3CCN(C(=O)CSCc4ccccc4)CC3)n2)cc1,i
CCOC(=O)N1CCN(Cc2nc(-c3ccc(N4CCCCCC4)nc3)no2)CC1,i
COc1ccc(-c2nnc(SCC(=O)Nc3cc(C)cc(C)c3)n2N)cc1OC,i
CCOc1ccc(C(=O)N2CC(c3nc(-c4ncccn4)no3)C2)cc1OCC,i
COc1ccc(OCc2ccc(-c3nc(C#N)c(N4CCCCCC4)o3)o2)cc1,i
Cc1ccc(CNC(=O)C(=O)NCC2CCN(C3CCCC3)CC2)cc1,i
O=S(=O)(Cc1ccc(C(F)(F)F)cc1)NCC(O)c1ccoc1 (centres undefined),i
CCOC(=O)COc1ccc2c(=O)c(-c3ccc(OC)cc3)c(C)oc2c1,i
COc1ccc(C(=O)Nc2ccc3c(c2)CCC(=O)N3Cc2ccccc2)c(OC)c1,i
CCOc1ccc(/C=C/C(=O)N(CC(C)C)CC(C)C)cc1OC,i
CC#C[C@]1(O)CC[C@H]2[C@@H]3CCC4=CC(=O)CCC4=C3[C@@H](c3ccc(N(C)C)cc3)C[C@@]21C,i
Cc1c(-c2ccc3c(c2)OCO3)oc2ccc(C(O)C(C)O)cc12 (centres undefined),i
CCCOc1ccc(CNC(=O)Cn2cnc3c([nH]c4ccccc43)c2=O)cc1,i
O=C(CCn1ccc(=O)[nH]c1=O)N1CCCC(c2nnc(-c3ccccc3F)s2)C1 (centres undefined),i
Cn1cccc1CN(Cc1cccs1)C(=O)COc1ccc(Cl)cc1,i
O=C(Cc1cc(=O)[nH]c(SCc2ccc(F)cc2)n1)NCc1ccccc1Cl,i
Cc1ccccc1C(=O)Nc1ccc2nc(C)n(-c3ccccc3)c(=O)c2c1,i
COc1cccc(Oc2nccn3c(=O)n(CC(=O)Nc4ccc(OC)c(Cl)c4)nc23)c1,i
CC(NC(=O)/C(C#N)=C1\N=C(NC(=O)c2ccccc2)c2ccccc21)c1ccccc1 (centres undefined),i
COC(=O)N1CCN(CCNC(=O)NCc2ccc(F)cc2)CC1,i
O=C(c1cc(-c2ccccc2)on1)N1CCCC(c2nnc(-c3ccccc3F)s2)C1 (centres undefined),i
O=C(NCc1cc(-c2cccs2)n(C2CCCC2)n1)c1ccccc1C(F)(F)F,i
Cc1c(C(=O)N(C)C)sc2[nH]c(=O)c(C(=O)Nc3ccc(Cl)cc3Cl)c(O)c12,i
# Next section
SMILES,GIRK2 act
COc1ccc(C(=O)Nc2ccc3c(c2)CCCN3S(=O)(=O)c2ccccc2)cc1,i
NC(=O)CSc1cnn(CC(=O)NCc2ccc3c(c2)OCO3)c(=O)c1Cl,i
CCn1c(C)cc(O)c(C(c2ccc([N+](=O)[O-])cc2)c2c(O)cc(C)n(CC)c2=O)c1=O,i
O=C(NC1CC(=O)N(C2CC2)C1)c1cncc(Br)c1 (centres undefined),i
Cc1c(C(=O)NCC#CCOc2ccccc2C(N)=O)cnn1-c1ccccc1,i
O=C(Nc1ccc(S(=O)(=O)Nc2nccs2)cc1)c1nnn(-c2ccc(F)cc2)n1,i
COc1ccccc1-c1cc(C(=O)NCCc2cc(C)no2)[nH]n1,i
Cc1nc(-c2cccs2)sc1CNC(=O)Cn1nc(-c2ccc(F)cc2)ccc1=O,i
COC(=O)c1cn(Cc2cc(F)cc(F)c2)nc1S(=O)(=O)N1CCCC1,i
CC(C)NC(=O)N1CCN(CCNC(=O)c2cccs2)CC1,i
C=C1[C@H](OC(C)=O)[C@H]2[C@@H](OC(C)=O)C(C)C[C@]2(OC(C)=O)C(=O)[C@H](C)C=CC(C)(C)C(=O)[C@H](OC(=O)C(C)C)[C@H]1OC(C)=O (some centres undefined),i
CSc1ccccc1NC(=O)C1CSCCC(=O)N1 (centres undefined),i
CC(O)(CNC(=O)/C=C/c1cccs1)c1ccco1 (centres undefined),i
COc1cccc(COc2cn(C)c(C(=O)Nc3ccccc3SC)cc2=O)c1,i
Cc1cc(-c2nnc(NC(=O)c3cnn(-c4ccccc4)n3)o2)c(C)o1,i
CCOc1ccc(-c2nnc3sc(-c4ccc([N+](=O)[O-])cc4)nn23)cc1,i
COc1cc(NC(=O)Cn2nc3ccc(-c4ccc(C)c(C)c4)nn3c2=O)cc(OC)c1,i
COc1ccc(S(=O)(=O)NCC(C)(O)CCc2ccccc2)cc1OC (centres undefined),i
CCOC(=O)N1CCN(Cc2cc(=O)oc3cc(C)c(O)cc23)CC1,i
COc1cccc(N2CCCn3c2nc2c3c(=O)n(CCN3CCCCC3)c(=O)n2C)c1,i
Cc1ccccc1N1CCN(C(=O)c2cn(-c3cc(N4CCSCC4)ncn3)cn2)CC1,i
COc1ccc(Cc2nc3ccccc3n2C)cc1OC,i
Cc1noc(CNC(=O)C2CCN(C(=O)c3cnn(-c4ccccc4)n3)CC2)n1,i
COc1ccc(-c2ccc(=O)n(CCNS(=O)(=O)c3cccc(C)c3)n2)cc1,i
COC(=O)c1ccc(NC(=O)C(=O)NCCC(O)c2ccccc2)cc1 (centres undefined),i
# (further entries)
SMILES,GIRK2 act
COC(=O)c1ccc(NC(=O)CN2CCc3[nH]c4ccc(Cl)cc4c(=O)c3C2)cc1,i
C=CCSc1nc2c(c(=O)n(Cc3ccc(Cl)cc3)c(=O)n2C)n1C,i
COCC(C)(O)CNC(=O)C1CC=CCC1 (centres undefined),i
COc1ccccc1OCC(=O)NCCC(O)C(C)(C)C (centres undefined),i
O=C(c1ccco1)N1CCc2cc(S(=O)(=O)NC3CCCC3)ccc21,i
CCOc1ccc(C(=O)Nc2ccc3nc(C)n(-c4ccc(F)cc4)c(=O)c3c2)cc1,i
CC1CCC2(CC1)NC(=O)N(CC(=O)NCc1cccs1)C2=O (centres undefined),i
Cc1ccc2[nH]c3c(=O)n(CCC(=O)NCc4ccc(Br)cc4)cnc3c2c1,i
O=C(NCCC(O)c1ccc2c(c1)OCO2)c1ccc(Br)o1 (centres undefined),i
CC(=O)c1cccc(Nc2ccnc3ccc(F)cc23)c1,i
CC(=O)c1ccc(Nc2nc3ccccc3nc2NS(=O)(=O)c2ccccc2)cc1,i
CC1CC(=O)c2c(cc3c(-c4c(O)cc(O)c5c(O)c6c(cc45)OC(C)CC6=O)c(O)cc(O)c3c2O)O1 (centres undefined),i
COc1cccc(C(=O)NCC2CCN(Cc3cc(C)oc3C)CC2)c1OC,i
CCOc1ccc2cccc(NC(=O)Cc3cccs3)c2n1,i
Cc1ccc2nc(N(CCCn3ccnc3)C(=O)c3ccc(Cl)s3)sc2c1,i
Cc1nc(-c2nnc(NC(=O)c3ccc(F)c(F)c3)o2)cs1,i
Cc1cn2c3c(=O)[nH]c(=O)n(C)c3nc2n1CCCN1CCC(Cc2ccccc2)CC1,i
CCOc1ccc(-c2noc(Cn3nc(-c4ccccc4OC)ccc3=O)n2)cc1,i
Cc1ccc(C)c2sc(N(CC3CCCO3)C(=O)C3CCCC3)nc12 (centres undefined),i
O=C(NC1CC(O)C(CO)C1)c1cnc2ccccc2n1 (centres undefined),i
Cc1cc(C(O)CCNC(=O)c2cc(-c3ccco3)on2)c(C)o1 (centres undefined),i
CSCC(C)(O)CNC(=O)C(=O)Nc1cccc(Cl)c1C (centres undefined),i
Cc1ccc(CNC(=O)Cn2nc(-c3cccs3)ccc2=O)cc1,i
Cc1noc(C)c1S(=O)(=O)N1CCC(S(=O)(=O)Cc2ccco2)CC1,i
COc1ccc(-c2csc(SCc3ccc(C(=O)N4CCOCC4)o3)n2)cc1OC,i
# Continuation:
SMILES,GIRK2 act
CN(C)c1ncc(NC(=O)c2ccccc2Cl)cn1,i
COCCCNC(=O)Cn1c(=O)c(S(=O)(=O)c2ccccc2)cc2cc(C)ccc21,i
O=C(CCl)Nc1nsc(-c2cccc([N+](=O)[O-])c2)n1,i
CC1CCCC(C)N1CC(O)Cn1cc(CO)c2ccccc21 (centres undefined),i
COc1ccc(-c2nc3oc4ccccc4c(=O)c3c(=O)n2CCc2ccccc2)cc1,i
O=C(Nc1cccc2cnccc12)c1ccc(Cl)c(S(=O)(=O)N2CCCC2)c1,i
CCOc1cc(NC(=O)CSc2ccncc2)ncn1,i
N#Cc1nc(-c2ccc(S(=O)(=O)N3CCCC3)cc2)oc1N1CCCCCC1,i
CC1=C(C(=O)Nc2ccc(C)c(C)c2)C(c2ccc(Cl)c([N+](=O)[O-])c2)NC(=O)N1 (centres undefined),i
Cc1ccc(CNC(=O)c2ccc(=O)n(C)n2)cc1,i
O=C(CN1CCN(C(=O)NCc2ccc(Cl)cc2)CC1)c1cccs1,i
O=c1[nH]c2nc(NCCCn3cccn3)ncc2c(=O)n1C1CCCC1,i
O=C(NCc1cccs1)c1ccc(Oc2nccnc2N2CCCCC2)cc1,i
O=C(Nc1ccc(CC(=O)N2CCCC2)cc1)NC12CC3CC(CC(C3)C1)C2,i
Cc1ccccc1-c1csc2c(=O)[nH]c(N3CCCC(C(=O)NC4CCCCC4)C3)nc12 (centres undefined),i
O=C(C1COc2ccccc2O1)N1CCN(c2ccc(-n3ccnc3)nn2)CC1 (centres undefined),i
CCCc1ccc(S(=O)(=O)NCC2CCN(C3CCCC3)CC2)cc1,i
COc1cccc(OCCn2c(C3CC(=O)N(Cc4ccccc4)C3)nc3ccccc32)c1 (centres undefined),i
COc1ccc(C2(CNC(=O)CCn3ccc(=O)[nH]c3=O)CCCC2)cc1,i
O=S(=O)(c1ccc(-c2nnc(SC/C=C/c3ccccc3)o2)cc1)N1CCCCCC1,i
COc1ccc2c(=O)c(Oc3ccc(C(=O)NCC4CCCO4)cc3)coc2c1 (centres undefined),i
CCC(C)NC(=O)Cn1c(=O)n(-c2cccc(C)c2)c(=O)c2ccccc21 (centres undefined),i
Cc1ccc(C)c(S(=O)(=O)Nc2ccc(C(=O)N3CC(C)CC(C)C3)cc2)c1 (centres undefined),i
COc1ccc(NC(=O)CSc2nc3nc(N4CCCC4)sc3c(=O)n2C(C)C)cc1Cl,i
